Bioassay records as filed in PubChem.
Yeast UUG start: alters start codon recognition fidelity in yeast. S. cerevisiae UUG-firefly luciferase reporter, luminescence/redox ratio. activity score, % at 18.7 µM. 350,000 compounds, 0.13% hits;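 active means replicate mean at a twofold rise or more, about +100% in these data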;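 further: firefly luciferase made from a UUG start codon reports start codon fidelity; reporter light over untreated wells divided by growth signal over untreated wells; some hits fall short of that in this replicate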
Env fusion inh: inhibitors of HIV Env-mediated cell fusion. AID 651610. inhibition, % at 12.3 µM. HeLa-JRFL Env/CEM21 cell fusion, luciferase. 360,000 compounds, 1.1% hits;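 active means mean replicate inhibition score of at least 50 and every replicate individually at or above 50; inconclusive means only one of the two criteria met; inactive means mean below 50 and not all replicates reaching 50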;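 further: 0% = plate neutral controls and 100% = maraviroc near 300 nM; one replicate is shown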
Rce1 inhib: inhibitors of yeast Ras-converting enzyme; AID 2563; 290,000 compounds, 0.27% hits; Q03530; calls only; yeast membranes, quenched prenylated peptide cleavage fluorescence;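 active means fall in fluorescence gain of 50% or more versus controls, with final raw signal at or below 3038400; inconclusive means same 50% fall but final raw signal above 3038400; inactive means fall in fluorescence gain under 50%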;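 further: plate controls were neutral control wells for no effect and wells lacking membranes for full effect; tested at 10 µM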
Target sequence (Q03530 whole entry, looked up): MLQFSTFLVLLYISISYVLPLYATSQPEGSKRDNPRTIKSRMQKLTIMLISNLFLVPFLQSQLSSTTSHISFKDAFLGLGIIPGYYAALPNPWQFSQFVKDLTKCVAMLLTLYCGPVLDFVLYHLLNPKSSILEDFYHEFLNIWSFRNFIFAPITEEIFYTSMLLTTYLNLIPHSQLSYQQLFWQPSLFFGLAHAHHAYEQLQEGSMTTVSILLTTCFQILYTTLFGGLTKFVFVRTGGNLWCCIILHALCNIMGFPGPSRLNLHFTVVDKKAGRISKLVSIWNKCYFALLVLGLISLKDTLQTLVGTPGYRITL
PABP FP inh: PABP-poly(A) binding inhibition; inhibition, % at 35 µM; AID 2014; P11940; 290,000 compounds, 1% hits; PABP-poly(A) RNA binding, fluorescence polarization;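 active means 50% or more with normal probe brightness, or confirmed in later tests; inconclusive means above 50% with abnormal brightness, or retests that disagree; inactive means below 50% or failed in later tests; about a fifth of its hits are not listed in these tables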;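 further: calls also rest on retests at 20 µM and on dose response follow-up; controls were probe without protein and protein plus probe with vehicle; some compounds called inactive have numbers as strong as hits; many hits fall short of the cut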
eIF4H FP inh: inhibitors of RNA binding by human eIF4H. 290,000 compounds, 0.94% hits. AID 2012. inhibition, % at 35 µM. eIF4H fluorescence polarization binding assay;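 active means 50% or more with normal probe brightness, or confirmed in later tests; inconclusive means above 50% with abnormal brightness, or retests that disagree; inactive means below 50% or failed in later tests; about a fifth of its hits are not listed in these tables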;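 further: calls also rest on retests at 20 µM and on dose response follow-up; 0% = protein and probe with vehicle and 100% = probe without protein; strong numbers were not always called active; many hits fall short of the cut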
CSC inhib: blocks cancer stem cells. cancer stem cell-like cells viability, luminescence. inhibition, % at 7.5 µM. 300,000 compounds, 1.1% hits. AID 2717;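 active means mean at 75% or more and at least half the replicates too; inconclusive means mean and replicates disagree; tested in HMLE shEcad cells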;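 further: 0% = median of negative and 100% = median of positive control wells; the first replicate is given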
MT1-MMP act inh: MT1-MMP (human) activation inhibition; P50281; HT1080 RFP-PRO-GFP cells, GFP/RFP ratio fluorescence, overnight; percent of plate control window, DMSO zero; GFP/RFP ratio change, % at 20 µM; 360,000 compounds, 0.061% hits;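 active means GFP/RFP ratio change of at least 30% with cell ATP level not reduced by more than half and red fluorescence within 50% of control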; further: strong numbers were not always called active
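Assay system: RFP-PRO-GFP reporter HT1080 cells; read-out basis: GFP/RFP fluorescence ratio; benchmarks: DMSO wells and RFP-L50D-GFP cells; doses: 20 µM single dose, 1% DMSO; schedule: overnight cell settling, then overnight compound exposure, 37 °C, 5% CO2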
eIF4H FP inh retest: also measured in eIF4H FP inh; calls as there; inhibition, %; compound at 20 µM; confirmation average;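 mean of two retest wells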
PABP FP inh retest: second read-out of PABP FP inh, no call of its own (marks repeat the call); inhibition, %; compound at 20 µM; confirmation repeats;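 mean of two retest wells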
MT1-MMP act inh RFP: further read-out of MT1-MMP act inh, marked with its call; RFP signal change, %; measured here: RFP expression control read;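 0 = vehicle wells; hits needed this value within 50% of zero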
Active calls of the source: *; i = inactive; ? = inconclusive; · = not tested or not shown.

SMILES	Yeast UUG start	Env fusion inh	Rce1 inhib	PABP FP inh	eIF4H FP inh	CSC inhib	MT1-MMP act inh	MT1-MMP act inh RFP	others
O=C(O)C(c1ccccc1)N1C(=O)/C(=C/c2cccs2)SC1=S (stereo unspecified)	·	-19	i	11	7	3	7	8
COc1ccc(Br)c(C(=O)NCC2CCCCC2)c1	1	9	·	-4	0	-14	-3	-2
Cn1c(=O)n(C)c2cc(NC(=O)c3ccccc3[N+](=O)[O-])c(Br)cc21	19	-13	i	-7	-5	-4	9	10
Fc1cccc(CCN2CCNC[C@@H]2c2ccccc2)c1	-12	-1	·	·	·	11	-4	2
COCC(C)NCc1cccc2ccccc12 (stereo unspecified)	·	3	i	-5	5	-10	3	4
N#Cc1ccccc1NC(=O)COc1c(Br)cc(Br)c2cccnc12	-15	1	i	-1	45	-3	1	7
COc1ccc(NC(=O)CN2CCCC2c2cccs2)cc1S(=O)(=O)N1CCCCC1 (stereo unspecified)	3	·	·	·	·	-24	9	-19
CCN(Cc1ccncc1)C(=O)CC1C(=O)NCCN1Cc1ccc(F)c(F)c1 (stereo unspecified)	·	19	·	-2	-1	2	-11	-5
Cc1ccc2c(c1)nnn2C1CCN(S(=O)(=O)c2ccc(C(=O)N(C)C3CCCCC3)cc2)CC1	-1	0	i	-1	4	-10	0	-17
COc1ccc(-c2c(C(C)=O)c(C)nc3sc4c(c23)NC(c2ccccc2)NC4=O)cc1 (stereo unspecified)	2	·	i	-1	-6	-11	0	0
Cc1ccc(C(=O)NCC(=O)OCc2c(F)cccc2Cl)cc1	·	3	i	·	·	2	-2	4
COc1cc(S(=O)(=O)Nc2ccc(C)cc2)ccc1N=Cc1c(C)[nH]n(-c2ccccc2)c1=O	·	·	i	10	-6	14	4	-3
CCCCCCC(=O)Nc1nc(C)c(-c2csc(Nc3ccccc3OC)n2)s1	-3	20	i	2	2	9	8	-3
CCOc1ccc(CN(C)C(=O)CNC(=O)C2CCCCC2)cc1OC	1	0	i	0	10	-9	2	3
O=C(NCc1cccc(C(F)(F)F)c1)c1cc(-c2ccccc2)nn1CC1CC(c2cccnc2)=NO1 (stereo unspecified)	-45	14	i	·	·	18	4	3
CCC1Oc2ccccc2N(CC(=O)NCCN2CCCC2)C1=O (stereo unspecified)	-7	7	i	7	1	2	1	5
O=C(Oc1oc(-c2ccco2)nc1C=Nc1ccccc1)c1ccco1	6	·	i	8	-2	3	4	4
CCCCOc1ccc(C2=NNC(=O)CC2)cc1	·	-4	i	-3	0	10	4	1
Cn1c(=O)c2c(nc(Cc3ccc(N)cc3)n2C)n(C)c1=O	-10	5	i	6	-2	-10	-2	2
CCOc1ccc(NC(=O)c2ccc(CC)s2)c([N+](=O)[O-])c1	-7	-107	i	-8	-6	-2	6	4

An excerpt from above in order of molar mass, rising.
SMILES	Yeast UUG start	Env fusion inh	Rce1 inhib	PABP FP inh	eIF4H FP inh	CSC inhib	MT1-MMP act inh	MT1-MMP act inh RFP	others
COc1ccc(Br)c(C(=O)NCC2CCCCC2)c1	1	9	·	-4	0	-14	-3	-2
CCC1Oc2ccccc2N(CC(=O)NCCN2CCCC2)C1=O (stereo unspecified)	-7	7	i	7	1	2	1	5
COc1ccc(NC(=O)CN2CCCC2c2cccs2)cc1S(=O)(=O)N1CCCCC1 (stereo unspecified)	3	·	·	·	·	-24	9	-19

Back to the main list, starting 2 compounds before the break.
SMILES	Yeast UUG start	Env fusion inh	Rce1 inhib	PABP FP inh	eIF4H FP inh	CSC inhib	MT1-MMP act inh	MT1-MMP act inh RFP	others
Cn1c(=O)c2c(nc(Cc3ccc(N)cc3)n2C)n(C)c1=O	-10	5	i	6	-2	-10	-2	2
CCOc1ccc(NC(=O)c2ccc(CC)s2)c([N+](=O)[O-])c1	-7	-107	i	-8	-6	-2	6	4
CCC(C(=O)c1ccccc1)P(=O)(NN)c1ccccc1 (stereo unspecified)	-16	10	i	-6	-3	-5	-2	0
O=C(Nc1cccc(-c2cccc(F)c2)c1)C1CCN(Cc2ccco2)CC1	5	8	i	-4	5	1	-1	0
Cc1ccc(NC(=S)N2CCN(c3ncccn3)CC2)cc1C	·	16	i	3	-7	5	1	0
O=C(CN1C(=O)NC2(CCCC2)C1=O)Nc1ccccc1C(F)(F)F	-9	-4	i	-5	1	-10	1	5
CCc1ccc[n+](-c2[nH]c(=O)sc2/C=N/N=C(\N)[O-])c1	·	9	i	8	0	-11	1	1
Cc1cccc(NC(=O)Nc2ccc(S(N)(=O)=O)cc2)c1	-13	-11	i	4	-7	-7	2	-1
COc1ccc(C2C(C(=O)OCC3CCCO3)=C(C)NC3=C2C(=O)CC(c2ccco2)C3)cc1O (stereo unspecified)	-7	-26	i	10	32	-10	6	6
COc1ccc(NC(=O)c2ccc(NC(=O)c3nc4nc(C)cc(C)n4n3)cc2)cc1	-3	7	·	·	·	·	5	1
COc1ccc2nc(N(CCN(C)C)C(=O)c3ccc4c(c3)OCCO4)sc2c1	-3	-3	i	-1	-15	-5	0	1
CN1CCN(Cc2cc(Cl)c3cccnc3c2OC(=O)c2cccs2)CC1	-17	-13	i	-2	-4	17	-2	3
CC(=O)c1ccc(NC(=O)Cn2cnc(S(=O)(=O)N3CCOCC3)c2)cc1	-14	-4	i	·	·	6	-2	-1
COc1ccccc1-c1oc2ccccc2c1C#CCCO	-9	14	·	·	·	-32	1	-2
COc1ccc(CN2C[C@H](C)[C@@H](CC(=O)NCc3ccccc3)C2=O)cc1	-3	4	i	0	-12	-6	24	21
O=C1CCC(=O)N1OCCOc1ccccc1	-8	-2	i	-2	1	10	0	3
CC1CCCC(NC(=O)CSc2nnc(N)s2)C1C (stereo unspecified)	-17	·	i	3	-6	6	1	5
CCOCCCNCc1ccc(OCC(=O)N2CCOCC2)c(OC)c1	-9	23	i	2	-7	-3	5	4
O=C(Nc1ccc(F)cc1)N(Cc1nnc2n1CCCCC2)c1ccccc1	-4	·	i	-1	1	-31	-2	3
CC(=O)C1=C(C)NC(SCC(=O)c2ccccc2)=C(C#N)C1c1ccco1 (stereo unspecified)	·	·	i	20	38	37	·	·
COc1ccc(NS(=O)(=O)c2ccc(C)c(NC(=O)CN3C(=O)NC4(CCCC4)C3=O)c2)cc1	-1	0	·	·	·	·	0	1
O=C(CCN1C(=O)COc2ccccc21)N1CCCCC1	-14	8	i	-9	-8	2	-3	0
COc1cc([N+](=O)[O-])ccc1NC(=O)CC1SC(=Nc2ccc(F)cc2)N(CCC2=CCCCC2)C1=O (stereo unspecified)	·	36	i	-4	0	?	-13	-25
CC1CCCCC1NC(=O)CSc1nnc(N)s1 (stereo unspecified)	1	-17	i	-24	-4	-8	6	6
CC(C)(C)c1ccc(/C=N/Nc2ccc(C(=O)O)cc2)cc1	-86	46	i	3	11	1	1	3
COc1cccc(CN2CCN(C3CCN(c4ccccc4C)CC3)CC2CCO)c1 (stereo unspecified)	·	12	i	-2	-9	39	-6	-1
O=C(NCC1CCCO1)C1CCCN(c2ncccn2)C1 (stereo unspecified)	-16	-78	i	8	-2	-3	5	4
CC1(C)CC(=O)C(C(=S)Nc2ccccc2)=C(NC2CC(C)(C)NC(C)(C)C2)C1	·	-21	i	-2	1	-20	-1	-3
Cc1[nH]nc(Nc2ccc(C(C)C)cc2)c1[N+](=O)[O-]	-7	-85	i	2	-5	5	5	-5
CCOc1ccc(S(=O)(=O)N(CC(=O)NN=C2CCN(C)CC2)c2ccc(C)cc2)cc1	-1	-18	i	-3	9	-8	-3	0
O=C(COc1ccc(S(=O)(=O)N2CCOCC2)cc1)NC1CC1	-10	-10	·	-1	-10	-1	-4	0
CCc1nc2ccc(C(=O)NCc3cccs3)cn2c1N(CC)Cc1cccc(Br)c1	-2	-11	·	·	·	·	-5	-6
Cc1ccc(NC(=O)CN(C)C(=O)c2cccc(S(=O)(=O)NCc3ccccc3)c2)cc1	·	3	i	·	·	-6	1	-2
CC(C)C[C@H]1CNC(=S)N1CC1CCN(CC2CCCC2)CC1	-8	-14	·	·	·	·	3	7
CC(C)(C)OC(=O)NOCC(=O)N(Cc1ccccc1)CC(O)COc1ccccc1 (stereo unspecified)	-1	2	i	·	·	0	7	2
C=CCc1ccc(OC)c(OC)c1	-16	·	i	-13	-2	-12	·	·
CCc1ccc(-c2nc(SCC(=O)c3c(N)n(C)c(=O)n(C)c3=O)n[nH]2)cc1	-22	-7	·	·	·	2	-1	7
O=C(CSc1nnc(CNC(=O)c2ccccc2F)o1)NC1CCCCC1	-27	0	i	8	-1	-20	0	2
COC(=O)c1ccc(COc2ccc(C3C4=C(CCCC4=O)Nc4onc(C)c43)cc2)cc1 (stereo unspecified)	·	·	i	-2	3	11	-5	-6
CCCCNC(=S)N(C)/N=C/c1ccccc1C(=O)O	-8	-32	i	1	-10	-15	-2	2
Cc1cnc(NC(=O)CSc2c(Cl)cccc2Cl)s1	-8	·	i	8	-8	-1	-3	-4
COc1cc(OC)cc(C(=O)Nc2ccccc2NC(C)=O)c1	-22	·	i	0	-6	-5	-6	-1
COC(=O)c1sccc1NC(=S)N(C)C1CCCCC1	·	2	i	-6	-2	7	-1	2
COc1ccccc1/C=C/c1nc2ccc(OC(C)=O)cc2c(=O)o1	-3	-4	i	-1	-5	-18	0	1
CC1(C)CC(=O)C2=C(C1)NC(=O)CC2c1cc2c(cc1Br)OCO2 (stereo unspecified)	3	·	i	-6	-2	0	-2	1
O=C(CSc1ccc2nnc(-c3cccnc3)n2n1)NCC1CCCO1 (stereo unspecified)	-10	-25	i	59	4	·	1	4	eIF4H FP inh retest=-9;PABP FP inh retest=0
O=C(Cc1ccsc1)N1CCN(S(=O)(=O)c2cccc(F)c2)CC1	3	8	i	·	·	-13	-1	3
CC(C)(C)C1CCC(=NNC(=O)CN(c2ccccc2)S(=O)(=O)c2ccccc2[N+](=O)[O-])CC1 (stereo unspecified)	-24	-15	i	9	-4	-5	-1	1
COc1ccc(OCc2nnc(SCc3ccc(C(=O)O)cc3)o2)cc1	·	10	i	-4	0	-4	1	-4
COC(=O)c1cc(S(=O)(=O)NCC2CCN(Cc3ccc(F)cc3)CC2)cn1C	1	2	i	3	6	-12	-1	-2
Cc1cc(N/N=C/c2ccccc2F)nc(NCc2ccccc2)n1	·	-5	i	-3	4	17	-3	-2
O=C(O)c1ccccc1N=N/C(=N/Nc1cc(S(=O)(=O)O)ccc1O)c1ccccc1	-18	·	·	·	·	-2	26	2
Cc1nc(-c2ccc(S(=O)(=O)Oc3ccccc3Cl)s2)cs1	·	-6	i	2	-2	35	-2	-7
CCN(CC(=O)NCc1ccccn1)S(=O)(=O)c1ccc(Cl)cc1	-28	·	i	-1	-8	-6	-1	5
COc1ccc(NC(=O)CN(C)C(=O)C(C)Sc2ccccc2)cc1 (stereo unspecified)	-15	2	i	19	-4	-4	2	1
OC1CCCN(CC(O)COc2ccc(-c3ccccc3)cc2)C1 (stereo unspecified)	-4	10	i	5	-9	12	2	4
CC(c1ccccc1)c1nnc(NC(=O)Nc2ccccc2F)s1 (stereo unspecified)	-3	4	i	0	8	-2	0	-6
COc1ccccc1CNC(=O)C/C(C)=N/NC(=O)COc1ccc(C)cc1Br	·	-195	i	-4	2	·	3	4
CCCCC(CC)C(=O)NCC(C)NC(=O)C(CC)CCCC (stereo unspecified)	-9	0	i	-2	-7	-9	-6	-3
